Screening data as filed in PubChem BioAssay.
Resorufin autofl = compounds fluorescent in resorufin spectral region; 0.04% of 59,000 active; max dye-equivalent concentration, M; AID 588; Compound fluorescence, resorufin region 547/598 nm, buffer; active compounds read high; active = above 10 nM dye equivalent; inconclusive = 1 to 10 nM; inactive = 1 nM or less; a few of its hits are not listed in these tables; note: highest value over a series up to 38 µM
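Read-out: intrinsic compound fluorescence at ex 547/em 598 nm after 15 min at RT in pH 8.0 Tris (100 mM). Values expressed as resorufin-equivalent concentration from per-plate standard series.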
A647 autofl = compound autofluorescence in A647 spectral region; Compound fluorescence, A647 channel (570/671 nm), Tris buffer; max dye-equivalent concentration, M; 59,000 tested, under 10 active; AID 592; active means above 1 µM dye equivalent; inconclusive means 0.1 to 1 µM; inactive means 0.1 µM or less;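 note: values scaled relative to a standard on each plate; highest value over a series up to 38 µM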
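Fluorescence read (570 nm ex, 671 nm em) after 15 min RT incubation of compounds in 100 mM Tris buffer, pH 8.0; values expressed as dye-equivalent concentration against a six-point A647 standard series on each plate.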
A488 autofl = compound autofluorescence in A488 spectral region; 0.1% of 59,000 active; max dye equivalency, M; compound autofluorescence, A488 spectral region, dye equivalency; active compounds read high; active = above 10 nM dye equivalent; inconclusive = 1 to 10 nM; inactive = 1 nM or less; about half of its hits are not listed in these tables;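 note: highest value over a series up to 38 µM; compound alone in buffer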
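Read-out: relative fluorescence at 480/540 nm, expressed as Alexa 488 dye-equivalent concentration from a six-point A488 standard included per plate. Conditions: 100 mM Tris, pH 8.0; 15 min incubation, room temperature.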
AID923 = qHTS Assay for Allosteric/Competitive Inhibitors of Caspase-1: Spectroscopic Profiling in AFC Spectral Region; compound fluorescence, AFC spectral region (405/520 nm); almost no hit is shown here; Potency, µM (series often up to 57.5 µM), without a hit: top-dose fluorescence increase, usual class: activators; 1.1% of 75,000 active; active = well fitted activation curve with a large enough effect; inconclusive = small, poorly fitted or top-dose-only effect;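 note: potency is the fitted concentration of half-maximal effect; 0% is about no effect; scaled to a free AFC standard on each plate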
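Titrations up to 57 uM read every 20 sec for 3 min (405/520 nm) with 50 nM caspase 1 and 5 uM Ac-WEHD-AFC, pH 7.5 HEPES buffer. Fluorescence-vs-time intercept gave baseline, scaled against on-plate AFC standard.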
TSHR agonist = agonists of human thyroid stimulating hormone receptor; P16473; HEK293-CNG-TSHR cells (CNG channel as cAMP sensor), membrane potential dye, cAMP; Potency, µM (titrated, usually from 57.1 µM), inactives show at the highest dose activation, hits mostly activators; 0.48% of 73,000 active; AID 926; active = well fitted activation curve of enough size with the parental cells flat; inconclusive = any curve in the parental cells; inactive = parental cells flat and receptor cells flat or falling; note: potency is the fitted concentration of half-maximal effect; % of control where 0% means no effect; weak receptor curves with flat parental cells got no call and are not listed
Target sequence (P16473 whole entry, looked up): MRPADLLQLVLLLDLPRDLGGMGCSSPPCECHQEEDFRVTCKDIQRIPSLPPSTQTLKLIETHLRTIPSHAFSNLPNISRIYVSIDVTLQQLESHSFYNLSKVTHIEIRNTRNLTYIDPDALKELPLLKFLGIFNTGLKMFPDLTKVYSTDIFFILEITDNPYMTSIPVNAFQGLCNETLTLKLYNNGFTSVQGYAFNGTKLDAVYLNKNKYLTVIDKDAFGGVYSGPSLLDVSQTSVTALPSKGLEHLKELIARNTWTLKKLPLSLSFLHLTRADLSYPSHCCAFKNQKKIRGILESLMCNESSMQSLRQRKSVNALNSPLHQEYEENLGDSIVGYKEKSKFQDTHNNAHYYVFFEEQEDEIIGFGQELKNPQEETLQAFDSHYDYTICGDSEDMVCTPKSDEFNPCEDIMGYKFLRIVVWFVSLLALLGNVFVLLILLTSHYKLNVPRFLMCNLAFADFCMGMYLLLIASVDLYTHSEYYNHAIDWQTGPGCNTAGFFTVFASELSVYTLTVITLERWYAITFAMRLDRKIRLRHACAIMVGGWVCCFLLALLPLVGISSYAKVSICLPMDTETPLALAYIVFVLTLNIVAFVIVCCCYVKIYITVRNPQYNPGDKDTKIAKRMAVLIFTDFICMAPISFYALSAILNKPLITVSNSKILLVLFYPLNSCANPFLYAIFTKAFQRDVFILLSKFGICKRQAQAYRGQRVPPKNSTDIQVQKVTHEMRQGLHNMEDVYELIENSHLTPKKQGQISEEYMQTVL
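cAMP rise detected as CNG-channel membrane depolarization by fluorescent dye (emission 590 nm), 30 min after compound, following 60 min dye loading containing 100 uM RO 20-1724 at room temperature. Cells: TSHR/CNG HEK 293, with parental CNG HEK 293 as control.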
* marks the source's active call; other numbers are inactive results; i = inactive; ? = inconclusive; . = no result given; & = joins results of further samples; [ ] = remark or other dose. Some of the compounds tested; the hit share may differ from the screen's.

Results follow in this order: Resorufin autofl	A647 autofl	A488 autofl	AID923	TSHR agonist
#1 CCN(CC)C(=O)C1=C(C)NC(=O)NC1c1c(F)cccc1Cl (centres undefined)
    i	1e-09	i	0.5%	0%
#2 Nc1ccc(S(=O)(=O)c2ccc(N)cc2)cc1
    i	1.9e-08&1e-09	i	-3.9%	?
#3 CC(=O)Nc1ccc(S(=O)(=O)NCC(C)NS(=O)(=O)c2ccc(NC(C)=O)cc2)cc1 (centres undefined)
    i	1e-09	i	-0.1%	-11%
#4 CS(=O)(=O)N1CCc2cc(C(=O)N3CCCCC3)ccc21
    i	2.2e-09	i	-1.2%	0%
#5 CCC(=O)Nc1cccc(-c2cn3ccsc3n2)c1
    i	3.3e-09	i	-1.9%	-12%
#6 O=C(C1CCN(S(=O)(=O)c2cccc3nsnc23)CC1)N1CCc2ccccc2C1
    i	1e-09	i	-0.1%	-13%
#7 CCC(=O)OCC(=O)[C@@]1(OC(=O)CC)[C@H](C)C[C@@H]2[C@@H]3[C@H]([C@@H](O)C[C@@]21C)[C@]1(C)C=CC(=O)C=C1C[C@@H]3Cl
    i	1e-09	i	-2.3%[25.7 µM]	0%[25.6 µM]
#8 CC(C)(C)NC1=CC(=O)OC12CCCCC2
    .	.	.	-0.6%	1%[11.4 µM]
#9 COc1cccc(N2CC(C)Cn3c2nc2c3c(=O)n(CCN3CCOCC3)c(=O)n2C)c1 (centres undefined)
    i	2.1e-09	i	-0.1%	-12%
#10 CC(C)NC(=O)[C@@H]1C[C@H]1[C@@H](NC(=O)OCc1ccccc1)c1ccccc1
    .	.	.	0.6%	?
#11 O=C(Cn1cnc2c(oc3ccccc32)c1=O)N1CCN(c2ccccc2)CC1
    i	1e-09	i	0.0%	9%
#12 CO[C@H]1COC(=O)[C@@H](C)COC(=O)[C@@H](COCc2ccccc2)NC(=O)C/C=C\[C@H]1C
    .	.	.	6.4%[11.5 µM]	-1%[11.4 µM]
#13 CC(C)Sc1nnc([C@@H]2CCCN2C(=O)OC(C)(C)C)o1
    i	2.5e-08	i	0.9%	1%
#14 CCOC(=O)CSC1=C(C#N)C(c2ccccc2C)C2=C(CCCC2=O)N1 (centres undefined)
    i	3.2e-08	i	-0.1%	7%
#15 COc1ccc(Oc2ncc3nc(-c4cccc(C#N)c4)c(=O)n(CCC#N)c3n2)cc1
    i	3.6e-08	i	7.5%	?
#16 Cc1ccc2cccc(S(=O)(=O)N3CCN(c4cccc(Cl)c4)CC3)c2n1
    i	1.2e-08	i	-3.6%	18%
#17 CN(C)C(=O)COn1c(SCC(=O)N(C)C)nc2ccccc2c1=O
    i	2.2e-08	i	.	.
#18 CC(C#N)On1c(SC(C)C#N)nc2ccccc2c1=O (centres undefined)
    i	1.8e-09	i	-0.5%	8%
#19 Cc1nc2ncnn2c(C)c1CCC(=O)O
    i	4.9e-08	i	-2.8%	-6%
#20 CCn1c(SCC(=O)NC2CCCCC2C)nnc1-c1ccc(OC)cc1 (centres undefined)
    i	1e-09	i	.	.
#21 Cc1nnc(SCC(=O)c2c(N)n(C)c(=O)n(C)c2=O)[nH]c1=O
    i	1.2e-09	i	0.5%	2%
#22 Cc1c(C)c2cc(Cl)c(O)c(CN3CCCCC3)c2oc1=O
    i	3.5e-09	i	.	.
#23 CN(C)Cc1ccccc1-c1cc(Nc2ccccc2)ncn1
    i	3.6e-08	i	-0.1%	23%
#24 O=C1CN(C(=O)COC(=O)C23CC4CC(CC(O)(C4)C2)C3)c2ccccc2N1
    i	9.5e-09	i	0.6%	-5%
#25 c1ccc(-c2cn3cccnc3n2)cc1
    i	1e-09	i	0.7%	-4%
#26 O=C(CSc1nc2ccccc2c(=O)n1Cc1ccco1)c1ccc(F)cc1
    i	3.7e-08	i	1.1%	?
#27 Cc1nc2ccc(Nc3nc4cc(S(=O)(=O)N5CCOCC5)ccc4o3)cc2s1
    i	2.7e-08	i	8.5%	-4%
#28 O=C(Nc1ccccc1C(F)(F)F)C1CC(=O)N(c2ccccc2F)C1 (centres undefined)
    i	4.3e-08	i	0.1%	6%
#29 COc1ccc(OC(C)C(=O)N2CCN(c3ccccn3)CC2)cc1 (centres undefined)
    i	4.8e-09	i	7.6%	25%
#30 Cc1cccc(Cn2c(=O)n(Cc3ccco3)c(=O)c3ccccc32)c1
    i	2.9e-08	i	0.3%	?
#31 O=C(Nc1cccc(F)c1)N1CCCC2(CCN(C(=O)c3ccco3)CC2)C1
    i	1e-09	i	4.5%	22%
#32 O=C(Nc1ccccc1)N1CC=C(c2ccccc2)CC1
    i	2.8e-08	i	-0.4%	?
#33 CC(=O)N1C(=O)c2cccc3cccc(c23)C(=O)N1C(C)=O
    i	1e-09	i	-0.3%	-6%
#34 COC(=O)c1cc(CSc2nc3ccc(C)cc3[nH]2)oc1C
    i	1e-09	i	-3.3%	?
#35 COC(=O)c1ccc(COc2ncnc3c(Cl)cc(Cl)cc23)o1
    i	7.3e-09	i	0.0%	0%
#36 Cc1cc(C)n(C(CC(=O)N2CCc3ccccc3C2)C(=O)O)n1 (centres undefined)
    .	.	.	-0.6%	1%
#37 CCOC(=O)c1c(C)c(C(=O)NCCN2CCOCC2)c(C)n1C
    i	1e-09	i	1.4%	2%[11.4 µM]
#38 Cc1[nH]nc2c1C(=O)CC(C)(C)C2
    .	.	.	0.3%	-7%
#39 CCCCS(=O)(=O)NC1=NCN(Cc2ccco2)CN1
    i	2.3e-08	i	-0.2%	4%
#40 CCN(CC)CCOC(=O)c1ccc(NC(=O)CCNC(=O)Cn2ccc3ccccc3c2=O)cc1
    i	2.6e-09	i	2.0%	5%
#41 O=C(N1CCCCCC1)N1CCN(C(=O)N2CCOCC2)CC1
    i	2.6e-09	i	0.2%	13%
#42 O=C1OC(NC(=O)c2ccccc2)C(n2cc(CO)nn2)=C1Cl (centres undefined)
    i	6.1e-09	i	-1.9%	1%
#43 Cc1ccc(Cn2c(SCC(C)C)nc3c2c(=O)n(C)c(=O)n3C)cc1
    i	5.4e-09	i	0.4%	?
#44 COC1(C#CC2C=CC(OC(C)=O)C(COC(C)=O)O2)CCCCC1 (centres undefined)
    .	.	.	-1.6%[11.5 µM]	-5%[11.4 µM]
#45 CCCn1c(SCC(=O)NCCc2ccccc2)nnc1-c1ccccn1
    i	3.1e-09	i	-1.7%	5%
#46 O=C(NCCO)C1CCN(S(=O)(=O)c2ccc(F)cc2)CC1
    i	1e-09	i	1.4%	0%
#47 Cc1cc(C)nc(NC(=O)c2ccc(OC(C)C)cc2)n1
    i	2.6e-08	i	.	.
#48 Cc1nc2ncnn2c(C)c1CCC(=O)NC(C)CCc1ccco1 (centres undefined)
    i	3.3e-08	i	0.3%	1%
#49 O=C(CSc1nnnn1-c1ccc(F)cc1)NC1CCCCC1
    i	1e-09	i	3.3%	.
#50 COc1ccc(-c2nc(CSCC(=O)NCC3CCCO3)c(C)o2)cc1OC (centres undefined)
    i	1.2e-09	i	-0.3%	3%[11.4 µM]
#51 COc1ccc(C2C(C(=O)Nc3cccc(C)n3)c3ccccc3C(=O)N2C)cc1 (centres undefined)
    i	6.3e-09	i	-1.5%	28%
#52 CC(C)OCCCNC(=O)c1ccc2c(c1)ncn2C1CCCC1
    .	.	.	-1.6%	6%
#53 CC1CCC/C(=C\Nc2ccc(O)cc2)C1=O (centres undefined)
    i	1.9e-08	i	7.7%	15%
#54 COc1cccc(-c2nc(CS(=O)(=O)CC(=O)NCCC(C)C)c(C)o2)c1
    .	.	.	2.5%	?
#55 COCCNC(=O)C(c1ccccc1)N(CCOC)C(=O)Cn1nnc2ccccc21 (centres undefined)
    i	1.4e-09	i	0.2%	2%
#56 Cc1ccc(S(=O)(=O)N2CCN(C(=O)CC3CCCC3)CC2)cc1
    i	1e-09	i	-0.3%	2%
#57 CC1(C)CC(=O)CC(C)(C)N1OC(=O)c1ccccn1
    i	2.1e-09	i	1.7%	-1%
#58 COCCCNC(=O)c1c(N)n(/N=C/c2cccnc2)c2nc3ccccc3nc12
    i	4.1e-09	i	.	.
#59 NC(=O)c1oc2ccccc2c1NC(=O)c1ccco1
    .	.	.	-4.8%	-18%
#60 CC1CCCCC1NC(=O)C1CCN(C(=O)c2sccc2-n2cccc2)CC1 (centres undefined)
    .	.	.	-0.3%	22%

Random excerpt: 5 records from the list.
Results follow in this order: Resorufin autofl	A647 autofl	A488 autofl	AID923	TSHR agonist
#58 COCCCNC(=O)c1c(N)n(/N=C/c2cccnc2)c2nc3ccccc3nc12
    i	4.1e-09	i	.	.
#31 O=C(Nc1cccc(F)c1)N1CCCC2(CCN(C(=O)c3ccco3)CC2)C1
    i	1e-09	i	4.5%	22%
#45 CCCn1c(SCC(=O)NCCc2ccccc2)nnc1-c1ccccn1
    i	3.1e-09	i	-1.7%	5%
#56 Cc1ccc(S(=O)(=O)N2CCN(C(=O)CC3CCCC3)CC2)cc1
    i	1e-09	i	-0.3%	2%
#38 Cc1[nH]nc2c1C(=O)CC(C)(C)C2
    .	.	.	0.3%	-7%

Next entries
Results follow in this order: Resorufin autofl	A647 autofl	A488 autofl	AID923	TSHR agonist
#61 COC(=O)[C@H]1C[C@@H]1[C@H](NC(=O)c1cc(C)nn1C)c1ccccc1
    .	.	.	-2.0%	9%
#62 CCCn1c(SCC(=O)NCCc2ccccc2)nnc1-c1cccnc1
    i	1.4e-08	i	-0.5%	?
#63 O=C(Nc1nccs1)c1ccc(Br)o1
    i	1.6e-09	i	1.9%	0%
#64 C=CCn1cnc2scc(-c3ccccc3)c2c1=O
    .	.	.	-0.2%	-8%
#65 CCOCCCNS(=O)(=O)c1ccc2c(c1)oc(=O)n2CC(=O)OCC
    i	9.6e-09	i	0.2%	-7%
#66 COc1cc(C)nc(NC(=O)COc2ccc(Cl)cc2C)n1
    i	2.3e-09	i	2.4%	?
#67 Nc1nc(-c2ccccc2)cc(-c2ccccc2O)n1
    i	3.1e-08	i	-0.5%	17%
#68 CC(C)=CC(=O)OCC(=O)NC(=O)NC(C)(C)C
    i	5.3e-08	i	-0.9%	.
#69 COc1ccccc1C1SCCN1S(C)(=O)=O (centres undefined)
    i	6.3e-09	i	-0.5%	?
#70 O=c1c(-c2ccccc2)n[nH]c2ccccc12
    i	1e-09	i	1.7%	1%
#71 CCn1c(Cc2ccccc2)nnc1SCc1nc2ccccc2c(=O)[nH]1
    i	3.7e-09	i	-2.3%	1%
#72 CCOC(=O)c1c(C)c(C(=O)Nc2ccc3c(c2)OCCO3)c(C)n1C
    i	1e-09	i	0.0%	-2%[11.4 µM]
#73 Cc1ccc2c(c1)C(N1CCN(C)CC1)=Nc1cccnc1N2
    i	1e-09	i	-1.9%	3%
#74 CCOC(=O)C1CCN(c2c(NCCCN3CCN(Cc4ccccc4)CC3)c(=O)c2=O)CC1
    i	4.8e-08	i	3.3%	-2%
#75 CC1=Nn2c(nnc2-c2n[nH]c3c2CCC3)SC1
    i	4.5e-09	i	-2.8%	1%
#76 COc1ccc(S(=O)(=O)Nc2ccccc2C(F)(F)F)cc1
    i	1e-09	i	-0.1%	10%
#77 Cc1sc2ncnc(SC(C)C#N)c2c1C (centres undefined)
    i	1e-09	i	-2.4%	18%
#78 COc1ccc(NC(=O)c2cc3n(n2)C(C(F)(F)F)CC(c2ccco2)N3)cc1 (centres undefined)
    i	6.4e-08	i	0.4%	-7%
